D2 agonist: activates the human D2 dopamine receptor; 360,000 tested, 0.084% active; P14416; activation, % (no concentration beside the values); DiscoveRx PathHunter D2 beta-arrestin, luminescence, 90 min; 100% = 57 uM dopamine signal; in the data active = activation above about 40%; inconclusive = about 15% to 40%; inactive = below about 15%; further: compound concentration not given in the record; the text of the record calls up to 30% inactive
Target sequence (P14416 whole entry, looked up): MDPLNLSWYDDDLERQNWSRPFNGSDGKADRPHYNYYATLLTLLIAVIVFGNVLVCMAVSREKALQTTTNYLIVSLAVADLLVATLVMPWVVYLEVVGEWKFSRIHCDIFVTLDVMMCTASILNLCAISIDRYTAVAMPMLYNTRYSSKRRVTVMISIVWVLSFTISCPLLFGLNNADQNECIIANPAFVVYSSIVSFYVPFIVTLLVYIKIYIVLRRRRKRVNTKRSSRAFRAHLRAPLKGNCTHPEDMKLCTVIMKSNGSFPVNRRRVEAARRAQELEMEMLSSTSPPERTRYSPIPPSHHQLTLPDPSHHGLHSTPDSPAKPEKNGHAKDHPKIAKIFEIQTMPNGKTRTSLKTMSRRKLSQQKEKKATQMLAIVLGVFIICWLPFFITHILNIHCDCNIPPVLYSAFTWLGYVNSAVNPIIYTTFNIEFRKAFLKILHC
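DiscoveRx PathHunter D2 beta-arrestin cells (2,100/well) attached overnight, then compound-stimulated 90 min at 37 C in HBSS/10 mM HEPES/0.1% Tween-20 buffer; beta-galactosidase complementation read by luminescence after 1 h at ambient temperature. Dopamine 57 uM final (EC100) as control.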
Sfp inh: inhibitors of Bacillus subtilis Sfp phosphopantetheinyl transferase. Q9F4F7. Biochemical Sfp PPTase activity, qHTS. Potency, µM, for inactives: max response, negative = inhibition, usual class: inhibitors. 310,000 tested, 3.5% active; active means well fitted inhibition curve with a large enough effect; inconclusive means small, poorly fitted or top-dose-only effect, or another doubt; inactive means no such curve, though single readings can be large or run the other way;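 further: the enzyme is Sfp with the accession as filed and its product quenches rhodamine fluorescence; potency means the concentration at half of the fitted maximal effect; 0% = enzyme reaction without inhibitor and -100% = no enzyme wells; top concentration of the series not given in the record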
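After 15 min at room temperature with compound, 15 nM Sfp received 5 uM rhodamine-CoA plus 12.5 uM BHQ-2-ybbR (50 mM Hepes pH 7.6, 10 mM MgCl2). Rate came from the fluorescence difference over 30 min, ex 525/em 598 nm.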
PINK1 modulator: PINK1 expression modulation | PINK1 immunofluorescence, high-content cytometry, 24 h | Potency, µM (series often up to 76.6 µM), inactives show top-dose activation (PINK1 increase), hits mostly activators | 410,000 tested, 0.2% active | AID 624263; active = well fitted activation curve with a large enough effect; inconclusive = small, poorly fitted or top-dose-only effect; inactive = flat fitted curve, though single readings scatter; cell line not stated here;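 further: potency means the concentration at half of the fitted maximal effect; % of control where 0% means no effect; nearly all actives have a fitted effect of over 65% in size; a mitochondrial uncoupler was the plate control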
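Cells are seeded, rested 12 hours, then given compound at five concentrations or DMSO for 24 hours. After fixation, blocking and antibody staining, PINK1 amount and mitochondrial localization are scored; CCCP serves as control.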
gsp antagonist: antagonizes gsp, the McCune-Albright syndrome mutation. Potency, µM (titrated, usually from 76.9 µM), for the others: at the top dose activity change, negative = inhibition, actives largely listed as inhibitors. AID 624288. gsp-mutant cells, cAMP HTRF, 30 min; control for the full effect not named in the record. 340,000 tested, 0.4% active; active = falling curve of any shape with a large fitted effect; inconclusive = falling curve, mostly with a smaller effect; inactive = flat or rising curve; cell line not stated here;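 further: intracellular cAMP measured with PDE inhibitor Ro 20-1724 present during compound exposure; potency means the concentration at half of the fitted maximal effect; on the % scale 0 is the no-effect control and ±100 the full control effect; nearly all actives have a fitted effect of over 65% in size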
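Cells, 2000/well, grown 16–24 h in DMEM 10% FBS with 0.5 mg/ml G418, then compounds plus […] (300 uM addition stock), 30 min at 37C. cAMP read by HTRF (cAMP-d2 and anti-cAMP antibody-K in lysis buffer) after 30 min RT.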
gsp ag: activates gsp, the McCune-Albright syndrome mutation | Potency, µM (doses to about 76.9 µM), for the others: top-dose activation (cAMP increase), hits mostly activators | 340,000 tested, 0.13% active | gsp mutant cells, cAMP HTRF, 30 min; control for the full effect not named in the record; active = well fitted activation curve with a large enough effect; inconclusive = small, poorly fitted or top-dose-only effect, or another doubt; inactive = no such curve, though single readings can be large or run the other way; cell line not stated here;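 further: phosphodiesterase inhibitor Ro 20-1724 added with compounds to block cAMP breakdown; potency means the concentration at half of the fitted maximal effect; nearly all actives have a fitted effect of over 60% in size; about a fifth of the inactives were tested at one dose only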
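Cells stably selected in G418 were plated at 2000/well, grown 16-24 hr, then given compounds in DMSO with the PDE inhibitor […] (300 uM solution added) for 30 min at 37C; cAMP was read by HTRF.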
ClpP mod: qHTS Assay for Activators of ClpP; AID 651965, 2013; 340,000 tested, 1.9% active; Potency, µM (doses to about 57.5 µM), for inactives: at the highest dose activity change, negative = active; purified B. subtilis ClpP, FRET peptide cleavage, 20 min; ATP-dependent Clp protease proteolytic subunit (Bacillus subtilis (strain 168)), P80244; active = well fitted falling curve with a large enough effect; inconclusive = small, poorly fitted or top-dose-only effect; inactive = no such curve, though single readings can be large or run the other way; further: potency means the concentration at half of the fitted maximal effect; the source files actives as falling curves though it sought activators and does not explain the sign; nearly all actives have a fitted effect of over 65% in size; many hits overshoot -100%
Target sequence (P80244 whole entry, looked up): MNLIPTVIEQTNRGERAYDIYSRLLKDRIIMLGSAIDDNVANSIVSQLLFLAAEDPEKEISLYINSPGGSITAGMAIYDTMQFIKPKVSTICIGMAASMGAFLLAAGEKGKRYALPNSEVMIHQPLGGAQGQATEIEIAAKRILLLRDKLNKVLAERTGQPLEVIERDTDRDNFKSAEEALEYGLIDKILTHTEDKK
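Buffer: 100 mM Tris/HCl pH8, 100 mM KCl, 0.05% low protease BSA, 2.5% glycerol, 0.01% Tween-20. ClpP 10 microg/mL final; 20 min RT; delta FRET normalized to ADEP and DMSO controls.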
Menin MLL FP FL: inhibitors of human menin-MLL interaction, wild-type MLL peptide; Fluorescence polarization, fluorescein-MLL peptide displacement from menin; FP activity change, % at 61.4 µM; 290,000 tested, under 10 active; inconclusive = falling polarisation curve, or a change in total fluorescence; inactive = total fluorescence flat and polarisation flat or rising; no compound was filed as active; the % refers to the polarisation; negative = inhibition;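 further: % of control where 0% means no effect; inhibitors lower the polarisation; unlabelled MLL peptide was the positive control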
An asterisk follows results filed as active; ? = inconclusive; nt = not tested or not shown; & = joins results of further samples; [ ] = another dose, or the depositor's remark. No enrichment for hits; any-hit rate near 5.1%.

Fields: D2 agonist	Sfp inh	PINK1 modulator	gsp antagonist	gsp ag	ClpP mod	Menin MLL FP FL
1. Cc1ccc(S(=O)(=O)NC(C)(C)CN2CCc3ccccc3C2)cc1
 : -5.4	-15%	0.1%	-3%	-17%	-8.3%	0.4
2. O=C(CN1CCOCC1)Nc1ccccc1F
 : 3.6	11%	0.1%	8%	-5%[15.4 µM]	0.3%	-2.3
3. Cc1scc(C(=O)NNC(=S)NCc2ccccc2)c1C
 : -6.4	5%	0.0%	8%	5%	-2.1%	2.3
4. Cc1ccc2nc(SCC(=O)N3CCC(Cc4ccccc4)CC3)nc(=O)n2c1
 : -4.3	nt	1.0%	-14%	24%[15.4 µM]	nt	nt
5. Cc1ccc(OCC(=O)NNC(=O)C(=O)NC(C)(C)C)cc1
 : -1.8	19%	-0.3%	2%	4%	-3.7%	4.5
6. CN(CCC#N)c1ccc(C=C(C#N)c2cccc(C(F)(F)F)c2)cc1
 : 2.2	nt	2.0%	nt	nt	-2.8%	nt
7. COc1ccc(/C=N/Nc2cc(N3CCOCC3)nc(C)n2)c(OC)c1
 : 4.8	-5%	5.3%	35µM*	-34%	-16%	-1.8
8. COCCCNC(=O)CNC(=S)N(Cc1ccccc1F)C1CCCCC1
 : -1.1	7%	2.7%[38.3 µM]	8%	?	-4.9%	-1.3
9. O=C(Nc1ccc2c(c1)OCO2)C1CCN(C(=O)c2ccc([N+](=O)[O-])cc2)CC1
 : -5.8	19%	2.9%	1%	-4%	0.1%	-9.3
10. COc1cccc(C(=O)NCCCc2ccccc2)c1OC
 : -3.2	nt	0.5%	12%	-2%[15.4 µM]	nt	nt
11. Cc1nc2ccccc2c(=O)n1NCc1cccs1
 : -2.1	-9%	nt	-2%	-3%	-3.7%	7.0
12. CC(C)=NOc1nc(N2CCOCC2)nc(N2CCOCC2)n1
 : 1.6	10%	-0.8%	-2%	31%[15.4 µM]	-6.7%	2.9
13. Cc1cc(NC(=O)COc2ccc(Cl)cc2Cl)n(-c2ccccc2)n1
 : -1.1	7%	2.6%	-5%	-11%	-1.7%	3.5
14. O=CN1CCN(CC(O)Cn2c3ccccc3c3ccccc32)CC1 (configuration not stated)
 : -1.5	3%	0.3%	6%	14%	-12%	-0.1
15. CCOCCCn1c(=NC(=O)c2cccs2)c(C#N)cc2c(=O)n3cccc(C)c3nc21
 : -3.6	-9%	1.6%	-18%	19%	4.0%	3.1
16. COc1ccc([C@H]2CC(=O)C=C(c3cccc(NC(C)=O)c3)C2)cc1
 : -0.2	nt	-0.1%	-6%	nt	-3.1%	nt
17. CCn1c(=O)c2c(nc3n2CCCN3CCc2ccccc2)n(C)c1=O
 : -3.2	3%	2.4%	4%	8%	1.4%	3.0
18. O=C(O)CCCC[C@@H]1SC[C@@H]2NC(=O)N[C@@H]21
 : 4.9	nt	-0.2%	14%	nt	1.3%	nt
19. O=C(CN1C(=O)NC2(CCCC2)C1=O)NCc1ccc(F)cc1
 : -1.0	nt	-0.6%	6%	-4%[15.4 µM]	-0.5%	nt
20. Fc1ccc(/C=C\c2nccc3c2[nH]c2ccccc23)cc1
 : 0.5	?	1.8%	-16%	?	3.6%	-0.9
21. C=CCNC(=O)N1CCCC(C(=O)c2cccc(OC(C)C)c2)C1 (configuration not stated)
 : 0.6	20%	1.4%	-13%	-93%[inhibitor]	nt	-2.2
22. COc1ccc(C(=O)NCC(=O)Nc2ccccc2)cc1OC
 : -3.4	9%	-3.3%	2%	-20%	-5.6%	7.5
23. O=C(NC1CCCCC1)c1nn2c(C(F)(F)F)cc(-c3ccco3)nc2c1Br
 : -3.0	50µM*	14%	2%	23%	-1.2%	12
24. CSCCC(NC(=O)c1ccco1)C(=O)OCC(=O)Nc1ncc(Cl)c(C)c1Cl (configuration not stated)
 : -2.8	-14%	3.6%	-7%	5%	-0.7%	-1.5
25. CNC(=O)NC(=O)Cn1nc2n(c1=O)-c1ccccc1SC2
 : 2.8	25%	-0.3%	1%	27%	nt	-0.6
26. Cc1ccc(C)c(N2CCN(c3ccc([N+](=O)[O-])cn3)CC2)c1
 : 10	-4%	-2.9%	12%	36%	-0.2%	0.7
27. CCN1C(=O)[C@H]2[C@@H](c3ccc(-c4ccc(F)cc4)c(OC)c3)N[C@@](Cc3ccccc3)(C(=O)OC)[C@H]2C1=O
 : -1.9	nt	3.3%	-19%	nt	-4.7%	nt
28. CC(=O)c1ccc(N2CCN(C(=O)c3cc4c(C)nc5ccccc5c4o3)CC2)cc1
 : 1.8	-8%	5.9%	-23%	11%	?	-1.1
29. CCOC(=O)Cc1csc(NC(=O)COc2cc(C)cc(C)c2)n1
 : -0.7	20%	1.1%	-4%	-10%	-0.1%	-0.3
30. CCCCCC(=O)N/N=C/c1cc(Br)c(O)c(OC)c1
 : -4.2	-13%	7.3%	13%	26%	?	-0.8

New compounds follow:
Fields: D2 agonist	Sfp inh	PINK1 modulator	gsp antagonist	gsp ag	ClpP mod	Menin MLL FP FL
31. Cc1cccc2nc(-c3ccco3)c(Nc3ccc4c(c3)OCO4)n12
 : -1.5	?	4.0%&3.5%	-13%	-2%[15.4 µM]	4.1%	3.1
32. CCOC(=O)Nc1nc(C)c(C(=O)N(C)C)s1
 : -0.6	16%	5.7%[38.3 µM]	3%	36%	-0.1%	-1.0
33. CCN1CCN(CCOc2ccccc2OCc2ccccc2)CC1
 : -5.0	-11%	0.8%	14%	1%	2.0%	0.3
34. COc1ccc([N+](=O)[O-])cc1NC(=O)C(C)Sc1ccc(C)cc1 (configuration not stated)
 : -1.1	-12%	0.1%	?	1%	0.2%	-3.6
35. COc1ccccc1CCN1CCCC(CN(C)Cc2ccc(OCCO)cc2)C1 (configuration not stated)
 : -4.0	6%	-0.5%	-3%	21%	-0.7%	-6.6
36. CC(=NOC(=O)C1CCCCC1)c1nccs1
 : -5.3	nt	1.7%	nt	nt	0.3%	nt
37. Cc1c(OCc2ccc(C(=O)O)cc2)ccc2c(-c3ccccc3)cc(=O)oc12
 : 0.3	-10%	0.9%	?	-4%	-11%	-1.3
38. COc1ccccc1N1CCN(Cc2ccc(OC)c(OC)c2OC)CC1
 : 1.5	-10%	nt	8%	-3%	-1.4%	0.5
39. O=C(OCc1ccc([N+](=O)[O-])cc1)c1ccccn1
 : -3.5	11%	0.7%	12%	11%[15.4 µM]	nt	0.8
40. O=C(Cc1ccc(S(=O)(=O)N2CCCC2)s1)N1CCN(c2ccccc2)CC1
 : 3.4	21%	-0.8%	10%	-13%[15.4 µM]	nt	-8.7
41. Cc1nn(CCCC(=O)Nc2nccs2)c(C)c1[N+](=O)[O-]
 : 2.1	10%	-3.2%	8%	22%	-0.3%	-0.9
42. COc1ccc(OCC(=O)NNC(=O)c2cccc(S(=O)(=O)N(C)C)c2)cc1
 : -0.3	3%	-1.1%	3%	4%	-2.0%	0.7
43. CC(C)(C)c1ccc(/C=N/NC(=O)c2ccccn2)cc1
 : -3.7	-8%	0.5%	-2%	-13%[15.4 µM]	nt	-2.9
44. COc1cccc(Nc2ncc3nc(-c4cccs4)c(=O)n(CCC#N)c3n2)c1
 : nt	3%	26%	nt	nt	nt	?
45. Cc1cnc(NC(=O)COc2cccc3c2OC(C)(C)C3)s1
 : -1.1	20%	0.7%	0%	18%	-0.7%	-0.8
46. Cc1ccccc1CSCc1nc2ccccc2[nH]1
 : -1.3	2%	1.6%	-1%	19%	-4.6%	3.2
47. O=c1cc(CO)oc(CN2CCN(CCO)CC2)c1O
 : -1.6	-26%	0.3%	2%	-73%[inhibitor]	-1.2%	-1.5
48. COc1ccc(OC)c(C(c2nnnn2CC2CCCO2)N2CCN(C)CC2)c1 (configuration not stated)
 : 0.1	-4%	-1.3%	-8%[15.4 µM]	24%	-1.9%	3.4
49. Cc1ccccc1OCc1nnc(SC(C)C(=O)O)n1-c1ccccc1 (configuration not stated)
 : -2.5	nt	-0.4%	nt	-37%[inhibitor]	0.6%	nt
50. CC(C)CNC(=O)CC(=O)N/N=C/c1cccs1
 : -0.1	-4%	1.8%	10%	-25%	-5.0%	4.9
51. CC(CCN1CCN=C1N(C)C)c1ccccc1 (configuration not stated)
 : -2.1	nt	1.5%	8%	-41%[inhibitor]	-2.5%	nt
52. COc1ccc(C(=O)N/C(=C\c2cn(S(=O)(=O)N(C)C)c3ccccc23)C(=O)N2CCN(C)CC2)cc1
 : 2.2	5%	-0.1%	-25%	-15%	-1.9%	4.4
53. CC[C@H](C)C(C(=O)N1CCN(C(=O)OC(C)(C)C)CC1)n1cc(C(CO)NC(=O)OC(C)(C)C)nn1 (some centres not stated)
 : -0.4	4%	0.3%	5%	-61%[inhibitor]	1.5%	0.7
54. CC[C@@]1(C(=O)OC)N[C@H](CN(C)S(=O)(=O)c2ccc(C(C)(C)C)cc2)[C@@H]2C(=O)N(Cc3ccccc3)C(=O)[C@@H]21
 : -0.3	nt	1.2%	11%	nt	-1.1%	nt
55. Cc1ccc(-c2ccccc2)n1-c1cccc(C(=O)O)c1
 : -2.6	-20%	0.0%	-1%	-17%	-16%	6.6
56. CC(C)NC(=O)c1ccc(Sc2ccccc2)c([N+](=O)[O-])c1
 : -0.4	-3%	0.3%	-13%	-48%[inhibitor]	-1.5%	-1.4
57. COc1ccc(Cc2c(-c3ccc(OC)c(OC)c3)nc3c(C)cc(Br)cn23)c(C)c1
 : -2.6	nt	?	nt	nt	1.5%	nt
58. COc1ccccc1CNC(=O)C(=O)NCC1OCCN1S(=O)(=O)c1ccc2c(c1)OCCO2 (configuration not stated)
 : -3.2	6%	-0.6%	3%	-116%	2.4%	1.7
59. O=c1ccn(Cc2ccccc2Cl)cc1
 : -0.4	14%	?	0%	4%	-0.1%	6.3
60. C(=C\c1nnc(-c2cccs2)o1)/c1ccccc1
 : -0.1	9%	-6.0%[38.3 µM]	-10%	-3%	14µM*	-0.6
61. COCc1c(C(=O)N/N=C(/C)c2ccc(OCc3ccccc3)cc2)nnn1-c1nonc1N
 : -5.2	17%	2.5%	12%	?	-9.3%	-0.1

Screening data deposited in PubChem by National Center for Advancing Translational Sciences (NCATS).
